# PV pol inh = poliovirus RdRp elongation inhibitors, primary screen, biochemical, fluorescence polarization, total intensity | poliovirus polymerase elongation; stronger effect = lower value | % elongation, % (compound at 16.7 µg/mL) | 150,000 compounds, 0.66% hits; in the data active = % elongation below about 90%; note: some results filed as inactive read as strong as hits
# Mtb MbtI inh = MbtI salicylate synthase inhibitors, primary screen, biochemical, fluorescence intensity; P9WFX0; purified MbtI enzyme, fluorescence intensity read-out; inhibition, %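 (about 17 µg/mL by stock and volumes)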; 100,000 compounds, 0.89% hits; AID 493033, 2011;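 active = above 50% in both replicates, above 80% if mildly self-fluorescent; inactive = the rest, strongly fluorescent compounds included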;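 note: 0% = mean of negative and 100% = mean of positive controls; one replicate is shown; some compounds called inactive have numbers as strong as hits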
# Target sequence (P9WFX0 whole entry, looked up): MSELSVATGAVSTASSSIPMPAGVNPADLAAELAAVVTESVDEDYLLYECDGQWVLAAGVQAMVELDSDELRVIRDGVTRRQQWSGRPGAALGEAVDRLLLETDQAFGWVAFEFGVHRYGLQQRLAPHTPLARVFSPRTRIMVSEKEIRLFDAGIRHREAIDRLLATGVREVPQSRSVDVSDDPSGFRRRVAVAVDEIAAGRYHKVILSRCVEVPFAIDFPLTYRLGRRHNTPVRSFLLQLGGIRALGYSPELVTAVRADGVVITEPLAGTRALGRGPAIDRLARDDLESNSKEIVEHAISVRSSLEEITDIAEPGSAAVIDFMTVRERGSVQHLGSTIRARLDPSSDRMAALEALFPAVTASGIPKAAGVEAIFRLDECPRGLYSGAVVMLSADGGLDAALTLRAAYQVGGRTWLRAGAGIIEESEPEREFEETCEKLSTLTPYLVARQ
# Mtb MenB inh = M. tuberculosis MenB inhibitors, primary screen, biochemical, absorbance; 100,000 compounds, 0.43% hits; AID 540299, 2011; MenB enzyme assay, absorbance read-out; some hits fall short of the stated cut; 1,4-dihydroxy-2-naphthoyl-CoA synthase (Mycobacterium tuberculosis (strain ATCC 25618 / …; inhibition, %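 (about 12 µg/mL by stock and volumes)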;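 active = mean of two replicates above 30%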;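 note: 0% = no compound and 100% = wells with inactive enzyme; the first replicate is given; strong numbers were not always called active; inactives centre near -10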
# Target sequence (P9WNP5 whole entry, looked up): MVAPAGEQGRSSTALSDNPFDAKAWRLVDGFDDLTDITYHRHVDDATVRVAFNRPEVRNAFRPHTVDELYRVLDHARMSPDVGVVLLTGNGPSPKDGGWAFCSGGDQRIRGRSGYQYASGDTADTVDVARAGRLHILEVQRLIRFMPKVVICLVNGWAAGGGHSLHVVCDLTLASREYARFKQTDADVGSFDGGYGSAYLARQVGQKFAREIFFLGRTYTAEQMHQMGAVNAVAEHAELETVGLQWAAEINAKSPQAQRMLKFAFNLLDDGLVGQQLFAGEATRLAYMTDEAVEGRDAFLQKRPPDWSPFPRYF
# PV pol inh intensity = further read-out of PV pol inh, marked with its call; % elongation; measured here: total intensity read-out; formula for this scale not given here;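 total fluorescence in place of polarization; lower means less elongation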
# The depositor's hits bear a star; . = no result given; & = joins results of further samples. An unsorted share of the library; any-hit rate near 1.9%.
# Values run as follows: PV pol inh | PV pol inh intensity | Mtb MbtI inh | Mtb MenB inh
Cc1ccc(C(=O)N/C(=C\c2ccccc2)C(=O)Nc2c(C)n(C)n(-c3ccccc3)c2=O)cc1
    112 | 111 | . | -27
COCCNc1c(-c2ccccc2)nc2cc(C)ccn12
    100 | 102 | -28 | -15
COc1cccc(NC(=S)N(Cc2ccco2)C(C)c2ccco2)c1 (stereo not given)
    101 | 101 | 1 | -5
CC1(C)CC(/C=C/c2ccccn2)=Cc2c1sc(N)c2C#N
    86 | 109 | 37 | .
CC1=CC(=O)c2ccccc2C1=O
    99&101 | 101&98 | 10&-7 | -6&-13
N#Cc1nccnc1Oc1ccc(Cl)cc1
    101 | 105 | -12 | -14
COc1ccc(-n2ncc(NC(=O)Nc3ccc4c(c3)OCCCO4)c2C)cc1
    104 | 107 | -6 | -7
COc1ccc(N2C(=O)CCC(C(=O)O)C2c2ccccc2)cc1 (stereo not given)
    104 | 94 | 0 | 7
CNC(=O)C(C)n1sc2ccccc2c1=O (stereo not given)
    103 | 104 | 1 | -4
CC(C)(C)/C=N/NC(=O)C1CC1
    102 | 106 | -3 | 5
O=C(c1ccc(NC2=NC3CS(=O)(=O)CC3S2)cc1)N1CCN(c2ccccc2)CC1 (stereo not given)
    100 | 101 | 2 | -23
Cc1ccc(Cn2nc(C)c(/C=C/C(=O)OCc3nc4c(oc5ccccc54)c(=O)[nH]3)c2Cl)cc1
    101 | 106 | -2 | 8
COc1ccc(OC)c(C2N(Cc3ccccc3C)CCN2Cc2ccccc2F)c1 (stereo not given)
    102 | 101 | -1 | -5
CC(=O)N1CCc2c(sc3c2c(=O)n(-c2ccccc2)c(=O)n3CC(=O)Nc2cc(C)[nH]n2)C1
    102 | 104 | -5 | -15
O=C1CN(C(=O)CC2c3ccccc3-c3ccccc32)CC(=O)N1
    100 | 103 | -5 | -8
Cn1c(C(N)=O)cc2ccccc21
    101 | 100 | 24 | 12
CNC(=O)CN1C(=O)CCCc2ccccc21
    101 | 103 | -28 | 0
Cn1c(O)c(C=NCCc2c[nH]c3ccccc23)c(=O)[nH]c1=S
    100 | 99 | -11 | -21
COc1ccc(CNC(=O)C(OC(=O)c2ccc(Cl)nc2)c2ccccn2)cc1 (stereo not given)
    102 | 101 | -1 | -26
O=S(=O)(CCN1CCN(C(c2ccccc2)c2ccccc2)CC1)C(F)(F)F
    103 | 107 | 3 | .

# Compounds above containing a thiophene ring, fused or not, in the order listed:
# Values run as follows: PV pol inh | PV pol inh intensity | Mtb MbtI inh | Mtb MenB inh
CC1(C)CC(/C=C/c2ccccn2)=Cc2c1sc(N)c2C#N
    86 | 109 | 37 | .
CC(=O)N1CCc2c(sc3c2c(=O)n(-c2ccccc2)c(=O)n3CC(=O)Nc2cc(C)[nH]n2)C1
    102 | 104 | -5 | -15

# The results go on:
# Values run as follows: PV pol inh | PV pol inh intensity | Mtb MbtI inh | Mtb MenB inh
CSc1nc(-c2ccccc2F)c(C#N)c(=O)n1C
    102 | 104 | 1 | 25
CCn1cc(/C=C2/C(=O)N(c3ccccc3)c3ccccc32)c2ccccc21
    92 | 119 | 12 | -22
CCC(=O)Nc1c(C(=O)N2CCc3ccccc3C2)cnn1-c1ccc(C)c(C)c1
    103 | 101 | -11 | -16
CC1CCCCC1NC(=O)c1ccc(F)cc1 (stereo not given)
    104 | 108 | -9 | 5
Cc1cc(C)nc(SCCc2ccncc2)n1
    104 | 106 | -1 | -3
Cc1noc(C)c1C(=O)N(CC(=O)Nc1ccccc1Br)Cc1ccco1
    101 | 105 | -6 | 0
COc1ccccc1C(=O)N/N=C/c1c(O)c(I)cc2oc3c(c12)CCCC3
    101 | 102 | -2 | -3
Cc1cc(C)c(CN)c(=O)[nH]1
    103 | 104 | 84 | -8
O=C(Cn1c2ccc(F)cc2c2nc3n(c(=O)c21)CCS3)NC1CCCC1
    101 | 101 | 89 | 16
CCOc1cc2c(cc1OCC)-n1cccc1C(c1cccc(F)c1F)NC2 (stereo not given)
    101 | 102 | . | -14
CC1CN(C(=O)c2cccc(S(=O)(=O)N3CCOCC3)c2)C(=NC2CCCCC2)S1 (stereo not given)
    97 | 101 | -4 | -17
O=C(Nc1ccc(S(=O)(=O)NCc2ccco2)cc1)c1ncoc1-c1ccc(Cl)cc1
    101 | 102 | 32 | -65
COC(=O)c1nn(-c2ccc(OC)cc2)c(=O)c2c(N)sc(C)c12
    83* | 76* | 77* | -55
CCOC(=O)c1c(-c2ccc(C)o2)csc1NC(=O)COC(=O)C12CC3CC(CC(O)(C3)C1)C2
    106 | 108 | -7 | -26
Clc1ccc(Sc2cccc(Cl)c2Cn2cccc2)cc1
    104 | 118 | 0 | 8
O=C(CSc1ccc2nnc(-c3cccnc3)n2n1)c1ccccc1
    102 | 103 | 52 | -3
Cn1c(C(=O)Nc2cnc3ccccc3c2)cc2c(=O)n(C)c3ccccc3c21
    102 | 109 | 1 | -12
Cc1sc2ncnc(Sc3nnc(CN4CCCC4=O)o3)c2c1C
    98 | 99 | 73 | 1
O=C(CN1CCN(c2nc3ccccc3s2)CC1)Nc1ccc2c(c1)OCO2
    101 | 103 | -2 | 17
CN(C)/N=C/C=C1\CCC(C(=O)Nc2ccccc2)=C1N1CCOCC1
    105 | 114 | 7 | -53

# Reprinted from the part before: three entries; new compounds follow.
# Values run as follows: PV pol inh | PV pol inh intensity | Mtb MbtI inh | Mtb MenB inh
Cc1sc2ncnc(Sc3nnc(CN4CCCC4=O)o3)c2c1C
    98 | 99 | 73 | 1
O=C(CN1CCN(c2nc3ccccc3s2)CC1)Nc1ccc2c(c1)OCO2
    101 | 103 | -2 | 17
CN(C)/N=C/C=C1\CCC(C(=O)Nc2ccccc2)=C1N1CCOCC1
    105 | 114 | 7 | -53
Cc1cccc(-c2nc(CNC(=O)c3ccco3)cs2)c1
    103 | 103 | -3 | -23
CC(=NCc1ccc2c(c1)OCO2)C1=C(O)c2ccccc2C1=O
    101 | 96 | -27 | -23
N#CC1(NC(Cc2ccccc2)c2ccccc2)CCCCCC1 (stereo not given)
    112 | 105 | 0 | -19
NNC(=O)CCCc1nc2ccccc2s1
    100 | 101 | -2 | -21
COc1ccccc1C(=O)CSc1ccccc1Cl
    103 | 98 | 13 | .
CCCCCC1C(=O)CCC1CC(=O)OC (stereo not given)
    100 | 103 | -5 | 0
COC(=O)CC1=NN(c2nc3ccccc3[nH]2)C(=O)C1
    99 | 101 | 12 | -23
CN(C(=O)COC(=O)c1ccc(C#N)cc1)C1CCCCC1
    100 | 107 | -7 | .
O=C(/C=C/c1ccco1)NC12CC3CC(CC(C3)C1)C2
    102 | 106 | 10 | 6
Cc1ccc(O)c(C2=Nc3ccccc3C2(C)C)c1
    69 | 186 | -6 | -12
O=C(NCCO)C1=NN=CC1
    101 | 103 | . | -12
Cc1cccc(OCCn2cc(/C=N/n3cnnc3)c3ccccc32)c1
    98 | 102 | -12 | -26
COc1ccc(C(=O)CN2C=NS(=O)(=O)c3ccccc32)cc1
    100 | 104 | -11 | -7
CN(C)/C(=N\O)c1nonc1N
    102 | 102 | -15 | 18
Cc1ccsc1/C=N/NC(=O)Cc1cc(=O)[nH][nH]1
    103 | 101 | 16 | -63
Cc1ccc(Nc2nnc(SCc3nc4sc(C(=O)O)c(C)c4c(=O)[nH]3)s2)cc1C
    81* | 84* | 3 | -15
Cc1ccccc1NC(=S)N(C(C)C)C1CCN(C(C)C)CC1
    99 | 100 | 8 | -20
CCN(Cc1ccccc1)C(=O)c1ccc(C)cc1
    99 | 101 | -7 | 4
COc1cc(C(=O)OC(C)C(=O)N2CCC(C)CC2)cc(CN2C(=O)c3ccccc3C2=O)c1OC (stereo not given)
    106 | 107 | -12 | -23
COc1ccc(C2C(C#N)=C(C)NC(C)=C2C#N)c(OC)c1
    98 | 97 | -21 | -14
O=C(O)COc1ccc(-c2nnn(Cc3ccc(Cl)cc3Cl)n2)cc1
    98 | 104 | 2 | -16
Cc1ccc2onc(CNC(=O)NCCCN3CCOCC3)c2c1
    102 | 103 | 1 | 1
CO/N=C(\C(=O)Sc1nc2ccccc2s1)c1csc(N)n1
    98 | 102 | 49 | -15
COc1ccc(C2C3C(=O)NC(=O)C3ON2c2ccccc2)cc1 (stereo not given)
    104 | 111 | -2 | -1
CC1Cc2ccccc2N1S(=O)(=O)c1cc(Br)cnc1N (stereo not given)
    105 | 107 | -7 | 4
CCCCn1c(SCC(=O)NC2CCCC2)nc2c(sc3ccccc32)c1=O
    103 | 106 | -5 | 2
Cc1ccsc1Cn1nccc1NC(=O)C1CC(=O)N(c2ccc3c(c2)OCCO3)C1 (stereo not given)
    102 | 109 | -8 | -27
O=C(Nc1ccccc1SCCS(=O)(=O)c1ccc(Cl)cc1)c1ccccc1Cl
    103 | 103 | -9 | 6
CC(=O)N/C(=C\c1cccs1)C(=O)O
    103 | 107 | 8 | -21
COCc1cc(O)c(O)c(O)c1-c1c(COC)cc(O)c(O)c1O
    101&99 | 104&103 | 21 | 7
COc1ccc(Cn2c3nc(C#N)c(C#N)nc3c3c(=O)[nH]c(C)nc32)cc1
    47 | 245 | -17 | -34
COc1ccc(CCN=C2SCCN2C(=O)c2ccc(C#N)cc2)cc1
    97 | 105 | 4 | -11
Cc1cc(=O)[nH]c(O)c1C(=O)O
    99 | 97 | 14 | -36
CC(OC(=O)c1cccc(Cl)c1)c1ccc[n+](C)c1 (stereo not given)
    98 | 108 | -4 | -8
Cc1ccc2nc(SC(C)C(=O)O)[nH]c2c1 (stereo not given)
    99 | 99 | 9 | 14
CCOC(=O)/C=C1\SCC(=O)N1CC(O)c1ccccc1 (stereo not given)
    101 | 106 | 27 | 8
COc1cc(C)nc(NC(=O)Nc2cccc(Cl)c2)n1
    100 | 101 | 2 | 16
CC(C)N1CCN(C(=O)c2ccco2)CC1
    97 | 96 | . | -6
COc1ccccc1OCCSc1nc2ccccc2o1
    106 | 111 | . | -19
Cc1ccc(CNC(=O)c2oc3ccc(C)cc3c2C)cc1
    101 | 107 | -3 | -16

# In the list so far, these have bromine.
# Values run as follows: PV pol inh | PV pol inh intensity | Mtb MbtI inh | Mtb MenB inh
Cc1noc(C)c1C(=O)N(CC(=O)Nc1ccccc1Br)Cc1ccco1
    101 | 105 | -6 | 0
CC1Cc2ccccc2N1S(=O)(=O)c1cc(Br)cnc1N (stereo not given)
    105 | 107 | -7 | 4

# Next part.
# Values run as follows: PV pol inh | PV pol inh intensity | Mtb MbtI inh | Mtb MenB inh
Cc1cc(=O)[nH]c(SCC(=O)c2ccc3c(c2)NC(=O)CO3)n1
    103 | 109 | 29 | 16
O=C(NCc1ccco1)C(c1ccccc1)N(CCc1ccccc1)C(=O)Cn1nnc2ccccc21 (stereo not given)
    102 | 102 | 0 | -27
CSc1ccccc1C(=O)NCC(C)C
    102 | 103 | 2 | 2
O=C(O)c1c(Cl)c(Cl)c(Cl)c(Cl)c1C(=O)N1CCCC1
    102 | 101 | -2 | -4
CCN1C/C(=C\c2ccc(OC)cc2)C(=O)/C(=C/c2ccc(OC)cc2)C1
    100 | 103 | 16 | -11
COc1cc(OC)cc(C(=O)Nc2ccc(CN3CCCCC3)cc2)c1
    99 | 102 | 1 | -6
Cc1c(C(=O)Nc2cc(Cl)ccc2-n2cncn2)[nH]c2c1C(=O)CC(C)(C)C2
    100 | 102 | 2 | -23
O=C(CC1SC(=O)NC1=O)Nc1ccc(F)cc1 (stereo not given)
    99 | 99 | 14 | 23
COc1ccccc1C1CC(=O)Nc2sc3c(C)c(C#N)c(N)nc3c21 (stereo not given)
    104 | 101 | 70 | 18
CSc1cccc(NC(C)C(=O)NCc2ccccc2)c1 (stereo not given)
    102 | 96 | 8 | -5
O=C(CSCC(=O)Nc1ccccc1F)Nc1ccc2ccccc2c1
    109 | 109 | . | -29

# Source: PubChem BioAssay
